Assay outcomes (PubChem BioAssay)
Menin MLL FP FL: displaces fluorescein MLL peptide from human menin; Fluorescence polarization, fluorescein-MLL peptide displacement from menin; FP activity change, % at 61.4 µM; 290,000 tested, under 10 active; AID 1766; inconclusive = falling polarisation curve, or a change in total fluorescence; inactive = total fluorescence flat and polarisation flat or rising; no compound was filed as active; the % refers to the polarisation; negative = inhibition;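 also: % of control where 0% means no effect; inhibitors lower the polarisation; unlabelled MLL peptide was the positive control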
gsp antagonist: antagonizes gsp, the McCune-Albright syndrome mutation; gsp-mutant cells, cAMP HTRF, 30 min; control for the full effect not named in the record; Potency, µM (top dose mostly 76.9 µM), for the others: at the highest dose activity change, negative = inhibition, hits mostly inhibitors; hit rate 0.4% among 340,000; AID 624288; active = falling curve of any shape with a large fitted effect; inconclusive = falling curve, mostly with a smaller effect; inactive = flat or rising curve; cell line not stated here;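 also: intracellular cAMP measured with PDE inhibitor Ro 20-1724 present during compound exposure; potency is read from the fitted curve at half-maximal effect; % is scaled to controls: 0 for no effect and ±100 for the full control effect; nearly all actives have a fitted effect of over 65% in size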
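HTRF cAMP read-out (cAMP-d2 plus anti-cAMP antibody-K in lysis buffer, 30 min RT). Before lysis, cells are exposed to compounds with […] for 30 min at 37C in DPBS containing Ca/Mg, BSA and Tween 20.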
ClpP mod: qHTS Assay for Activators of ClpP. AID 651965, 2013. ATP-dependent Clp protease proteolytic subunit (Bacillus subtilis (strain 168)), P80244. hit rate 1.9% among 340,000. Potency, µM (doses to about 57.5 µM), inactives show at the highest dose activity change, negative = active. purified B. subtilis ClpP, FRET peptide cleavage, 20 min; active = well fitted falling curve with a large enough effect; inconclusive = small, poorly fitted or top-dose-only effect; inactive = no such curve, though single readings can be large or run the other way; also: potency is read from the fitted curve at half-maximal effect; the source files actives as falling curves though it sought activators and does not explain the sign; nearly all actives have a fitted effect of over 65% in size; many hits overshoot -100%
Target sequence (P80244 whole entry, looked up): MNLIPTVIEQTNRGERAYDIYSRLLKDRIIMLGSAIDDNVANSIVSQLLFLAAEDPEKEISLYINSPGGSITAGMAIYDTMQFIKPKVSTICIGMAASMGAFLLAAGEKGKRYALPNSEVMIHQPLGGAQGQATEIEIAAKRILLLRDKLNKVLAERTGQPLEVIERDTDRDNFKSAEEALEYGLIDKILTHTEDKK
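ClpP 10 microg/mL final, pH 8 Tris/KCl buffer with BSA, glycerol, Tween-20; compound pinned in; FRET-FV substrate; RT 20 min; Ex320/Em430; ΔFRET vs ADEP 5.8 microM, DMSO, no enzyme.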
gsp agonist: activates gsp, the McCune-Albright syndrome mutation; Potency, µM (doses to about 76.9 µM), without a hit: at the highest dose activation (cAMP increase), most hits filed as activators; AID 624287; hit rate 0.13% among 340,000; gsp mutant cells, cAMP HTRF, 30 min; control for the full effect not named in the record; active = well fitted activation curve with a large enough effect; inconclusive = small, poorly fitted or top-dose-only effect, or another doubt; inactive = no such curve, though single readings can be large or run the other way; cell line not stated here;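 also: phosphodiesterase inhibitor Ro 20-1724 added with compounds to block cAMP breakdown; potency is read from the fitted curve at half-maximal effect; nearly all actives have a fitted effect of over 60% in size; about a fifth of the inactives were tested at one dose only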
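Cells in DMEM/10% FBS with G418 were pretreated with compounds in DMSO plus […] (300 uM stock) for 30 min at 37C. cAMP was measured by HTRF (cAMP-d2 plus anti-cAMP antibody-K) after 30 min at room temperature.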
Sfp PPTase inh: blocks B. subtilis Sfp PPTase activity; Q9F4F7; hit rate 3.5% among 310,000; Potency, µM, for the others: max response, negative = inhibition, usual class: inhibitors; Biochemical Sfp PPTase activity, qHTS; active = well fitted inhibition curve with a large enough effect; inconclusive = small, poorly fitted or top-dose-only effect, or another doubt; inactive = no such curve, though single readings can be large or run the other way;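 also: the enzyme is Sfp with the accession as filed and its product quenches rhodamine fluorescence; potency is read from the fitted curve at half-maximal effect; 0% = enzyme reaction without inhibitor and -100% = no enzyme wells; top concentration of the series not given in the record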
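Buffer: 50 mM Hepes-Na pH 7.6, 10 mM MgCl2, 0.01% Nonidet P-40, 0.01% BSA. Enzyme 15 nM, pre-exposed to compound 15 min; substrates then added and fluorescence change tracked over 30 min.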
CtBP-E1A inh: CtBP/E1A binding inhibition; activity change, % (no concentration beside the values); hit rate 0.49% among 340,000; AlphaScreen GST-E1A/His-CtBP binding, 1536-well; active compounds read low; control for the full effect not named in the record; in the data active means activity change below about -65%; inconclusive means about -30% to -65%; inactive means above about -30%; also: % is scaled to controls: 0 for no effect and ±100 for the full control effect
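Protein mix (5X: 125 nM each GST-E1A, His-CtBP) was incubated with pinned compound 2 h at 37 deg C in dark, in 50 mM Tris pH 8.0 buffer with 300 mM NaCl. Glutathione donor and nickel acceptor beads followed; AlphaScreen signal read after 1 h.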
TRPV1 potentiator: enhances activation of the human vanilloid receptor TRPV1; hit rate 0.02% among 320,000; TRPV1-expressing cells, Fluo-8 calcium influx, capsaicin EC20 potentiation; host cell line not named in the record; control for the full effect not named in the record; AID 540277; Q8NER1; potentiation, % at 8.33 µM; active means potentiation above 80%; inconclusive means 30% to 80%; inactive means below 30%; also: 0% is about no effect
Target sequence (Q8NER1 whole entry, looked up): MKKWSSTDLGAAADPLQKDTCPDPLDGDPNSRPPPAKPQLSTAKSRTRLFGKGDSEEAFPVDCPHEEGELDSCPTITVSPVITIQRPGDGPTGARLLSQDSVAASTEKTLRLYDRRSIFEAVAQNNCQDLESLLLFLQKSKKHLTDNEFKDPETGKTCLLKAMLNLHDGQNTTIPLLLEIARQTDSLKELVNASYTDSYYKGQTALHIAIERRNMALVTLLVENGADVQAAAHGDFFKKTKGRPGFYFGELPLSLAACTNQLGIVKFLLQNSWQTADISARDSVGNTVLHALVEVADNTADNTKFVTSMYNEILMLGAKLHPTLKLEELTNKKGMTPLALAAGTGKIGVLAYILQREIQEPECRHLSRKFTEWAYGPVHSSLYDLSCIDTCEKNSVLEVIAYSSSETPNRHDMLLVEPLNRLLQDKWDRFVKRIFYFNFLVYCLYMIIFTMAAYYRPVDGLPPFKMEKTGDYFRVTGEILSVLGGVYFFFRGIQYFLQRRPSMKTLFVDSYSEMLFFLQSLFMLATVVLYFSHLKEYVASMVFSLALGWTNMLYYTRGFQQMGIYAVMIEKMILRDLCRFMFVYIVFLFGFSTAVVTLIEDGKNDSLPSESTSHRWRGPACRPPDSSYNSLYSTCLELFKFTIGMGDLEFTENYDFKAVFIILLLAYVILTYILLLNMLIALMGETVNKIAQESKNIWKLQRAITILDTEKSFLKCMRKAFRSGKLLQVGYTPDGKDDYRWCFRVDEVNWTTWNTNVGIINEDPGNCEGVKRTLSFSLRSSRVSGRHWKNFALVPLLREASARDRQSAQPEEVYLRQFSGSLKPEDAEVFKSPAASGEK
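TRPV1-expressing cells were cultured overnight at 35.5C and loaded with Fluo-8 calcium dye for 40 to 90 min at room temperature. After a 10 s baseline, compound was added and calcium influx was read kinetically for 3 min (ex 480/em 520 nm).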
Starred values were filed as active, the others as inactive; ? = inconclusive; · = no result given; & = joins results of further samples; [ ] = another dose, or the depositor's remark.

SMILES | Menin MLL FP FL | gsp antagonist | ClpP mod | gsp agonist | Sfp PPTase inh | CtBP-E1A inh | TRPV1 potentiator
CC(=O)c1ccc(OC(=O)Cc2cccc3ccccc23)cc1 | 1.9 | 2% | -0.7% | 13% | -6% | -2 | 10
CCC1CCCCN1CC(=O)Nc1ccc2c(c1)OCCO2 (stereo not drawn) | · | 6% | -4.9% | -25% | · | · | 1
COc1cccc(OC)c1C(=O)OCC(=O)N1CCC(Cc2ccccc2)CC1 | · | 9% | · | 26% | · | 7 | ·
COc1cc(C)nc(OCCNS(=O)(=O)c2cc(C)ccc2C)n1 | 0.5 | -7% | 1.0% | -37%[inhibitor] | 2% | 3 | -2
CCC(=O)Nc1ccc(C2C(=O)c3ccccc3C2=O)cc1 | -12 | -19% | · | -8% | 6% | -15 | 22
Cn1cc(/C=C(\NC(=O)c2ccccc2)C(=O)NCCN2CCOCC2)c2ccccc21 | · | -16% | -3.2% | 8% | -8% | -8 | 1
CCN(CC)CCn1c2c(c(SCC(=O)NCc3ccccc3)nc1=O)CCCC2 | · | 8% | -3.7% | 5%[15.4 µM] | · | 3 | 1
O=C(CN1CCN(C(=O)c2ccccc2)CC1)Nc1ccc(Br)cn1 | 3.2 | -2% | -1.6% | 4% | 18% | -1 | 11
NS(=O)(=O)c1ccc(NC(=O)COC(=O)CCC2CCCC2)cc1 | 0.7 | 4% | · | 15% | -1% | 0 | -14
O=C(c1cc2cc(Cl)ccc2[nH]1)N1CCN(c2ccccc2F)CC1 | -4.3 | -8% | 1.7% | -64%[inhibitor] | 28% | 1 | -2
O=C(NCCCN1CCOCC1)C1(c2ccccc2)CCCC1 | -0.5 | -4% | 0.9% | -45%[inhibitor] | 2% | 0 | -13
CN(C1=NS(=O)(=O)c2ccccc21)c1ccc(OC(=O)c2ccccc2)cc1 | · | 4% | · | 17% | 8% | -11 | 1
CC(C)c1cc(C(C)C)c(S(=O)(=O)NNC(=O)c2ccncc2)c(C(C)C)c1 | 0.5 | 13% | 0.5% | -2% | 14% | -1 | 3
CC1CC(=O)Nc2ccccc2N1C(=O)Nc1ccc(F)cc1 (stereo not drawn) | 3.3 | 7% | · | -11% | -6% | 15 | 18
Cc1c(Cl)cccc1NC(=O)COC(=O)c1c2c(nc3ccccc13)CCN(Cc1ccccc1)C2 | 0.3 | -10% | -9.7% | 21% | 6% | 3 | 1
COc1cccc(CC(NC(C)=O)C(=O)NC2CCN(C(=O)c3ccc(Cl)cc3)CC2)c1OC (stereo not drawn) | · | -4% | · | 19%[15.4 µM] | 10% | 6 | 3
CN(c1ccccc1)S(=O)(=O)c1ccc(Cl)c(C(=O)Nc2ccccc2N2CCOCC2)c1 | · | -21% | -0.8% | 2% | · | -1 | -1
CC(=O)N(C)c1ccc(NS(=O)(=O)c2cccc3nsnc23)cc1 | -2.5 | 8% | 1.5% | -3%[15.4 µM] | 4% | 8 | 0
Cc1ccc(C)n1-c1cccc(S(=O)(=O)N2CCOCC2)c1 | 3.5 | 2% | · | -8%[15.4 µM] | 16% | -2 | -2
O=C(NCc1ccco1)c1ccc(COc2cccc3ccccc23)cc1 | 0.0 | -25% | 11µM* | -8% | 4% | -2 | -1
CCCc1cc(=O)oc2cc(OC3CCCCC3=O)ccc12 (stereo not drawn) | 3.4 | -3% | 3.6% | 20% | 3% | 9 | -20
COc1ccc2oc(C(=O)OCC(=O)NCc3ccccc3OC)c(C)c2c1 | · | 1% | · | -17%[15.4 µM] | · | 1 | -3
Cc1ccnc2nc(C(=O)OCC(=O)c3ccccc3)nn12 | · | -1% | · | 7% | · | 7 | ·
COc1ccc(/C=N/NC(=O)c2ccoc2C)cc1COc1c(C)cccc1C | -0.4 | ? | -0.4% | -6% | 8% | -3 | -17
O=C(Nc1ccccc1)/C(=C/c1ccc2c(c1)OCO2)NC(=O)c1ccco1 | 2.4 | 15% | 0.5% | -4% | ? | -2 | -14

Next section
SMILES | Menin MLL FP FL | gsp antagonist | ClpP mod | gsp agonist | Sfp PPTase inh | CtBP-E1A inh | TRPV1 potentiator
COc1cccc(CN(C)CCCn2cnc3c(SC)ncnc32)c1 | · | · | 0.5% | -35% | · | 2 | ·
Cc1cc(-c2nnc(SCc3ccccn3)o2)no1 | -0.3 | 1% | 0.4% | 5% | 7% | 11 | 7
O=c1cc(N2CCc3ccccc32)[nH]c(=O)n1-c1ccc(Br)cc1 | 7.0 | -9% | -13% | -11% | -11% | -7 | -5
CCC(CO)n1c(SCc2cc([N+](=O)[O-])cc3c2OCOC3)nc2ccccc2c1=O (stereo not drawn) | 3.3 | -4% | -0.8% | 10%[15.4 µM] | -4% | -15 | -10
O=C(c1ccc(Cl)c(S(=O)(=O)N2CCCCCC2)c1)N1CCOCC1 | -3.6 | 0% | · | 2%[15.4 µM] | 16% | -1 | -5
Cc1cc(C(F)(F)F)nc(SCC(=O)NC2CCCCC2)n1 | 0.6 | -5% | · | -5%[15.4 µM] | 21% | 6 | -10
O=C(NC1CCCCCC1)c1ccc2c(=O)n3c(nc2c1)CCCCC3 | -0.4 | 2% | -5.8% | 15% | -5% | 4 | -21
COCc1cc(C)n(CC(=O)Nc2ccc(Cl)cc2Cl)c(=O)c1C#N | 3.8 | 9% | 25µM* | ? | 2% | 2 | -2
CC1(C)CC(=O)C(C=NCCN2CCN(C(=O)NC34CC5CC(CC(C5)C3)C4)CC2)=C(O)C1 | 0.0 | -2% | 2.4% | -8% | 8% | 4 | -3
Cc1cccn2c(=O)c(C=Nc3ccc(Cl)cc3)c(NCCO)nc12 | -2.4 | 4% | 28µM* | -1% | 7% | -14 | 2
O=C(/C=C/c1ccccc1)N1CCN(CCN2C(=O)c3cccc4cccc(c34)C2=O)CC1 | -1.0 | -6% | -2.9% | -5% | 4% | -6 | 0
CCCNC(=S)N1CC2(C)CN(C(=O)C(=O)OC)CC(C)(C1)C2=O | -3.9 | 7% | · | -25%[15.4 µM] | ? | 8 | 3
O=C(COC(=O)c1ccc(Cl)nc1)Nc1ccccc1OC(F)F | 3.0 | 5% | · | 13%[15.4 µM] | 15% | 0 | 6
Cc1cc(C)cc(NC(=O)CN2CCN(c3ncccn3)CC2)c1 | -2.0 | 7% | -2.5% | -11% | 5% | -4 | 8
COC(=O)c1ccc(C)c(NC(=O)c2ccc(Cl)c([N+](=O)[O-])c2)c1 | 5.2 | 1% | -0.9% | -13% | -3% | -3 | -15
O=C(O)c1ccccc1NS(=O)(=O)c1ccc(NN=Cc2ccccc2F)c([N+](=O)[O-])c1 | · | -24% | -0.9% | 9% | · | -23 | ·
Cc1nn(CC(=O)OCC(=O)NCCc2ccc(S(N)(=O)=O)cc2)c(C)c1[N+](=O)[O-] | · | 0% | 0.6% | -8% | · | · | -2
CC(Sc1nnc(N)s1)C(=O)Nc1ccc2c(c1)OCO2 (stereo not drawn) | · | 6% | · | -39%[15.4 µM] | · | -15 | -7
O=Cc1ccc(OCc2cn3ccccc3n2)cc1 | -2.4 | -1% | 23% | -23% | 13% | · | 0
Oc1csc(Cc2nc(-c3ccc(-c4ccccc4)cc3)cs2)n1 | 5.7 | -2% | -1.4% | -7% | -3% | 0 | -6
O=c1c2c(nc3nc(Cc4ccccc4)[nH]n13)CCC2 | -0.3 | 9% | -9.8% | 5% | 2% | 14 | 1
CCOC(=O)N1CCN(C(=S)Nc2ccc(C)c(C)c2)CC1 | 2.4 | 4% | -1.1% | 13%[15.4 µM] | 9% | 9 | -6
CC1CCCN(CCCNC(=O)c2cn(C)c3ccc(S(=O)(=O)N(C)C4CCCCC4)cc3c2=O)C1 (stereo not drawn) | · | 13% | 0.1%&-2.3% | -37%[inhibitor] | 13% | 8 | 3
CCCOC(=O)c1c(N)sc(C(=O)OCC)c1C | 6.1 | 12% | -0.6% | -25%[15.4 µM] | -10% | -21 | -9
CCOC(=O)CN1C(=O)N(CC(=O)OCC)C(c2ccccc2)(c2ccccc2)C1=O | -3.2 | 7% | · | 25% | 12% | 5 | -1

New compounds follow:
SMILES | Menin MLL FP FL | gsp antagonist | ClpP mod | gsp agonist | Sfp PPTase inh | CtBP-E1A inh | TRPV1 potentiator
COc1ccccc1NC(=S)NCc1ccc2c(c1)OCO2 | 0.6 | 0% | -1.3% | -24% | 6% | 2 | 10
Cc1csc(NC(=O)Cc2ccc(Cl)cc2)n1 | · | -2% | · | -13% | · | -5 | ·
CCOc1ccccc1N1CC(C(=O)Nc2cc(S(C)(=O)=O)ccc2Cl)CC1=O (stereo not drawn) | · | -1% | -1.2% | ? | · | 5 | -12
CC(C)(C)NC(=O)CSc1nc(N)cc(=O)[nH]1 | -2.9 | 5% | · | 18% | 7% | 0 | -6
NC(=O)COC(=O)c1ccccc1OCc1ccccc1 | 0.7 | -8% | · | 11% | 20% | -11 | -5
CCOC(=O)c1ccc2ncc(C(=O)OCC)c(NCCN(C)C)c2c1 | · | 9% | -13% | 27% | · | 5 | ·
COc1ccc(Cl)cc1NC(=O)CSc1nnc(Cc2cccn2C)n1-c1ccc(F)cc1 | 0.8 | -16% | 5.4% | 1% | 6% | -20 | 2
O=C(CN1CCOCC1)Nc1ncccn1 | 2.5 | 20% | 0.2% | -20% | 11% | 0 | -6
O=C1COc2ccc(C(=O)COC(=O)c3nc(Cl)ccc3Cl)cc2N1 | · | 1% | 3.2% | 16% | · | -3 | -1
Cc1cccc(N2CCN(C(=O)c3cccn4c(=O)c5c(C)c(C)sc5nc34)CC2)c1C | 5.8 | 2% | -4.6% | 10% | 8% | 0 | -2
CC(C)OC(=O)COc1cc(O)c2c(=O)cc(-c3ccccc3)oc2c1 | 0.6 | 2% | -0.9% | 4% | -11% | 16 | 30
CSc1ccc(C(=O)C2CCCN(C(=O)CCc3c(C)nn(C)c3C)C2)cc1 (stereo not drawn) | · | -14% | -3.2% | -1% | · | -8 | ·
CN(C(=O)CSc1ncnc2scc(-c3ccccc3)c12)C1CCS(=O)(=O)C1 (stereo not drawn) | 3.3 | · | · | 5%[15.4 µM] | 13% | -15 | -7

No enrichment for hits (roughly 5.3% active in at least one column).
